Mtb betalactam: beta-lactam sensitization of Mtb H37Rv, H37Rv | M. tuberculosis H37Rv growth with meropenem, percent inhibition; hits of this screen are not shown here | inhibition, % at 25 µM | 0.27% of 330,000 active | AID 434955, 2010;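 active = about 74% or more and at least 40 points above the plate without the antibiotic, then above 30% in a dose series; inconclusive = first-round hits that could not be retested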;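 also: growth measured after seven days incubation then overnight dye step; 0% = bacteria only wells and 100% = bacteria with antibiotic; twin plates without the antibiotic show which effects depend on it; some results filed as inactive read as strong as hits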
Mtb H37Rv: M. tuberculosis H37Rv growth inhibitors, H37Rv strain (AID 1626). 0.95% of 220,000 active. M. tuberculosis H37Rv growth inhibition; higher % means a stronger effect. inhibition, % at 10 µM; hits with a dose series show IC50 in µM;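 active = confirmed in a dose series; inconclusive = inhibition above 80% but not taken into the dose series; inactive = below 80% or under 30% at every dose of the series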;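 also: bacteria incubated seven days before Alamar blue readout; 0% = bacteria only wells and 100% = bacteria with antibiotic wells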
YopH inh: YopH tyrosine phosphatase inhibitors, primary screen, biochemical, fluorescence Ex485/Em525 | inhibition, %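 (about 10 µM by stock and volumes)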 | YopH tyrosine phosphatase [Yersinia enterocolitica] | AID 898, 2007 | 0.16% of 140,000 active;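 active = inhibition of 50% or more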;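 also: controls were vehicle for no effect and minimum signal wells for full effect; inactives centre near -20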
RecA splice inh: Mtb RecA intein splicing inhibitors, primary screen, biochemical, fluorescence, HTS; Protein RecA (Mycobacterium tuberculosis (strain ATCC 25618 / H37Rv)), P9WHJ3; cell-free RecA intein splicing; inhibition, %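 (about 9 µM by stock and volumes)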; 0.75% of 290,000 active; in the data active = inhibition above about 30%; inconclusive = no clear call, values can overlap the other calls;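 also: 0% = vehicle wells and 100% = reference inhibitor control wells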
Target sequence (P9WHJ3 whole entry, looked up, canonical isoform): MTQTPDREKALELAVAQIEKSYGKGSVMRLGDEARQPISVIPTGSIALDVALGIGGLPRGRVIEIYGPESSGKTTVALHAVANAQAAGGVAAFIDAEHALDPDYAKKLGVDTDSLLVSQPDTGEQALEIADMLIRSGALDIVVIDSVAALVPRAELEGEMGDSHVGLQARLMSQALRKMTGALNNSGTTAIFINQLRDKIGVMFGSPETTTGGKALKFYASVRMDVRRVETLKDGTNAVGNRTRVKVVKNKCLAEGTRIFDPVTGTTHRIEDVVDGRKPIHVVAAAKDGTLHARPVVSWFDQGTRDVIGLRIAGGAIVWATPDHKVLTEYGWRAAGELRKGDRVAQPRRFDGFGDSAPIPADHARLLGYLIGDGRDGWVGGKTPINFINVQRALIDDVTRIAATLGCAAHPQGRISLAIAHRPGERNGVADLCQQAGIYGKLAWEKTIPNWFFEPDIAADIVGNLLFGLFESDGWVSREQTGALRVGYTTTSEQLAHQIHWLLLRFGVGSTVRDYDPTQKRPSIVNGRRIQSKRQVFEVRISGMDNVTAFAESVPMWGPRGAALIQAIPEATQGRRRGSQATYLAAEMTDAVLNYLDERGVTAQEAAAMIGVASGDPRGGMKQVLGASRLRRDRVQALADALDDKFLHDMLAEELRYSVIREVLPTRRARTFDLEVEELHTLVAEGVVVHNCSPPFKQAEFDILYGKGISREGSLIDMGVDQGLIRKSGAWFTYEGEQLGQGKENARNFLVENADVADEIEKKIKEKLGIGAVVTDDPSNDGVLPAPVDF
Arbovirus inh: antivirals against arbovirus infection, primary screen, cell-based, full library, 10K replicate subset | arbovirus infection cell-based antiviral screen | inhibition, % at 10 µM | 0.37% of 200,000 active | AID 1251, 2008;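 active = inhibition from about 30%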;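 also: bluetongue infection of BSR cells; cell survival read as ATP light after 72 h; 0% = infected wells without compound and 100% = uninfected wells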
Arbovirus inh repeat: second read-out of Arbovirus inh, no call of its own (marks repeat the call); inhibition, %; measured here: 10K subset replicate screen; many hits read low in the repeat;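 first of two repeat runs on a subset; 0% = infected and 100% = uninfected wells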
* = called active by the depositor; ? = inconclusive; / = no result given.

SMILES	Mtb betalactam	Mtb H37Rv	YopH inh	RecA splice inh	Arbovirus inh	others
CCOC(=O)c1cnc(-n2nc(C)cc2C)nc1Oc1ccc(C(=O)OC)cc1	0	8%	/	/	/
COCCNC(=O)C(C)Oc1ccccc1 (centres undefined)	-7	-3%	/	-0.4	-1
COc1ccc(-c2nc(N3CCC(C)CC3)[nH]c(=O)c2C#N)cc1	7	4%	5	-1.3	12
CCCCc1c(C)nc(Nc2ccc(OC)cc2)[nH]c1=O	13	5%	-23	-6.4	5
Cc1ccc(-n2ncc3c2CCCC3NC(=O)CCCN2CCCC2=O)cc1C (centres undefined)	3	/	/	-2.7	/
O=C(CCCc1ccccc1)Nc1ccnn1C1CCN(Cc2ccccc2F)CC1	-15	/	/	0.0	/
O=C(NCCO)C1COc2ccccc2O1 (centres undefined)	7	2%	/	-4.2	4
CC(C)CN1C(=O)c2ccc(C(=O)Nc3ccccc3C(=O)O)cc2C1=O	-2	/	/	3.7	/
CSc1ncc(Cl)c(C(=O)Nc2sc3c(c2C(=O)NCc2ccco2)CCCC3)n1	/	7%	-9	/	-6
CC1(c2ccc(OC(F)F)cc2)NC(=O)N(CC(=O)Nc2ccc(Cl)cc2F)C1=O (centres undefined)	-8	/	/	-0.9	/
CCOC(=O)C1(Cc2ccccc2)CCCN(C2CCN(C(C)=O)CC2)C1 (centres undefined)	-11	5%	/	/	-2
CCC(C)C(=O)Nc1nnc(SCC(=O)NC2CCCC2)s1 (centres undefined)	2	/	/	-0.4	/
Cc1ccc(NC(=O)CN2C(=O)COc3ccc(C)cc32)nc1	-14	-2%	7	1.2	0
O=C(CCCSc1nc2ccccc2s1)NC1=NCCS1	4	-5%	-7	1.5	6
CCC(C)[C@H](NC(=O)Nc1ccc(C)cc1C)C(=O)O (some centres undefined)	-12	-6%	/	-1.8	/
COc1ccc(/C=C(/NC(=O)c2ccccc2)C(=O)NCCCn2ccnc2)cc1OC	-1	/	/	-0.4	/
CC(=O)C(/C=N/c1ncc(C(F)(F)F)cc1Cl)=C(\C)O	-5	-16%	/	0.7	21
C=C(C)CNC(=S)N/N=C(\C)c1cccc(NC(C)=O)c1	/	/	/	-0.1	-1
O=C(C1CCN(C2CCN(C/C=C/c3ccccc3)CC2)CC1)N1CCOCC1	-8	-5%	/	-0.4	-6
COc1ccc(C(=O)CSc2nnc(CC(=O)Nc3ccccc3OC)n2C)cc1	-11	2%	/	-4.7	3
COc1ccc(/C=C(/NC(C)=O)C(=O)O)cc1	-9	/	4	-3.1	3
COc1ccc(CC(=O)N(C)Cc2cccc(OC)c2OC)cc1S(=O)(=O)N1CCOCC1	-10	/	/	-0.3	/
Cc1[nH]nc2c1C1(C(=O)Nc3ccc([N+](=O)[O-])cc31)C(C#N)=C(N)O2 (centres undefined)	2	-5%	-11	3.0	10
CCOC(=O)c1nnc(-c2ccccc2)nc1N1CC(C)OC(C)C1 (centres undefined)	-14	-1%	/	-0.7	3
CC1(c2ccccc2)NC(=O)N(CC(=O)Nc2ccc(S(N)(=O)=O)cc2)C1=O (centres undefined)	0	/	/	-0.6	/
CC(C)CNC(=O)NC(=O)COc1ncnc2sccc12	0	-4%	-34	0.0	0
COc1cc2c(cc1OC)CN(C(=O)C(CCSC)NS(=O)(=O)c1ccc(C)cc1)CC2 (centres undefined)	-7	/	/	1.8	/
CC(=O)CCc1oc2c([N+](=O)[O-])cccc2c1-c1ccc(C)o1	6	3%	/	1.9	-25
COc1ccc(CNC(=O)N2CCc3ccccc3C2)cc1	4	/	/	4.1	/
CCc1nc(SCC(=O)NNC(=O)C(C)C)c2ccccc2n1	-12	45%	-25	1.9	3
Cc1ccc(C)c(NC(=S)N(CCc2ccncc2)C(C)C)c1	-9	-10%	/	0.4	5
Cc1ccc(S(=O)(=O)c2cc3c(=O)n4ccccc4nc3n(CCCN3CCOCC3)c2=N)cc1C	0	/	/	-237	/
O=C(CSc1ncnc2c1cnn2-c1ccc(F)cc1)NC1CCCC1	-10	/	/	-2.7	/
Nc1nonc1-n1nnc(C(=O)N/N=C/c2cccc(F)c2)c1-c1ccccc1	-1	/	/	1.8	/
O=C(O)c1ccc2c(c1)C(=O)N(Cc1ccco1)C2=O	0	/	/	-3.6	/
Cc1cc(C(C)(C)C)cc(C)c1COC(=O)c1cccnc1	1	/	/	13	/
COc1cc(Cl)ccc1OCc1cc(C(=O)N(C)Cc2cn(C)nc2C)no1	-12	/	/	-0.6	/
CC(C)c1ccccc1OCC(=O)Nc1ccc2[nH]ncc2c1	7	/	/	11	/
Cc1ccc(N2C(=O)N(CC(=O)Nc3cccc([N+](=O)[O-])c3C)C(=O)C2C)cc1 (centres undefined)	-14	/	/	-1.2	/
O=C(Nc1c(C(=O)NCc2ccco2)cnn1-c1ccccc1)c1cccc(F)c1	1	-10%	-19	-0.7	5

Molecules shown so far containing a COOH group, in the order listed:
SMILES	Mtb betalactam	Mtb H37Rv	YopH inh	RecA splice inh	Arbovirus inh	others
CC(C)CN1C(=O)c2ccc(C(=O)Nc3ccccc3C(=O)O)cc2C1=O	-2	/	/	3.7	/
CCC(C)[C@H](NC(=O)Nc1ccc(C)cc1C)C(=O)O (some centres undefined)	-12	-6%	/	-1.8	/
COc1ccc(/C=C(/NC(C)=O)C(=O)O)cc1	-9	/	4	-3.1	3
O=C(O)c1ccc2c(c1)C(=O)N(Cc1ccco1)C2=O	0	/	/	-3.6	/

New compounds follow
SMILES	Mtb betalactam	Mtb H37Rv	YopH inh	RecA splice inh	Arbovirus inh	others
CC(C)N(CCO)C(=O)C(c1ccccc1)c1ccccc1	1	-6%	-26	1.0	9
CNc1nc2ccccc2n(C)c1=O	3	0%	/	-0.1	0
FC(F)(F)c1ccc(Nc2nnnc3ccccc23)cc1	18	64%	/	-1.8	-5
CCOC(=O)C1CCN(C(=O)CNC(=O)c2nn(-c3ccc(OC)c(Cl)c3)c(=O)c3ccccc23)CC1	10	/	/	2.6	/
Cc1ccc(-c2nn(C(C)(C)C)c3ncnc(N)c23)cc1	-2	10%	-8	/	-7
Cc1c(O)ccc(-c2n[nH]c(C(=O)O)c2-c2nc3ccccc3s2)c1O	-1	-17%	/	-11	/
COc1ccccc1-c1sc2ccccc2c1-c1ccc2c(c1)OCO2	-5	/	/	7.6	/
O=C(NC(=S)Nc1nc2ccccc2s1)c1cccs1	9	61%	-16	7.3	5
COc1ccc(-n2c(Cc3cccn3C)nnc2SCC(=O)NC2CCCC2)cc1	-2	-4%	-31	2.4	-1	Arbovirus inh repeat=2
O=C(c1ccc(NS(=O)(=O)c2cccc3cccnc23)cc1)N1CCOCC1	0	-4%	-18	2.1	/
COc1cccc(CN2CCN(C(=O)c3ccc(-c4ccccc4)cc3)CC2)c1OC	7	-8%	/	/	5
CCn1c(SCC(=O)Nc2ccc(NC(=O)c3ccco3)cc2)nnc1-c1cccs1	2	-4%	-3	/	/
OC(CN1CCN(Cc2ccccc2)CC1)c1ccc(F)cc1 (centres undefined)	-5	3%	-30	-5.8	2
O=C(CSc1nc(=O)n2ccccc2n1)NCc1ccc2c(c1)OCO2	4	/	/	0.2	/
O=C(NCc1ccco1)C1CCN(c2nc3ccccc3n2Cc2ccccc2F)CC1	-1	9%	-41	3.0	-13
CCCC1(C(=O)OC)NC(c2ccc(OC)cc2OC)C2C(=O)N(c3cccc(C(C)=O)c3)C(=O)C21 (centres undefined)	-4	/	/	0.7	/
CCOC(=O)c1ccc(NC(=O)C(CC)CC)cc1	-11	-6%	-34	0.7	-3
COC(=O)CN1C(=O)COc2ccc(Cl)cc21	7	-3%	-25	2.1	0	Arbovirus inh repeat=-1
CCOc1ccccc1NCc1nnc(-c2ccccc2)o1	7	/	/	-4.5	/
COC(=O)c1ccc(NC(=O)Cn2nc(C(=O)Nc3ccc(C)cc3)ccc2=O)cc1	-1	/	/	4.7	/

2 entries drawn at random from those above:
SMILES	Mtb betalactam	Mtb H37Rv	YopH inh	RecA splice inh	Arbovirus inh	others
FC(F)(F)c1ccc(Nc2nnnc3ccccc23)cc1	18	64%	/	-1.8	-5
COc1ccc(-n2c(Cc3cccn3C)nnc2SCC(=O)NC2CCCC2)cc1	-2	-4%	-31	2.4	-1	Arbovirus inh repeat=2

(further entries)
SMILES	Mtb betalactam	Mtb H37Rv	YopH inh	RecA splice inh	Arbovirus inh	others
CC(C)CCNC(=O)CN(CC1CCCO1)C(=O)CCC(=O)Nc1nccs1 (centres undefined)	-15	2%	-49	-3.1	-1
O=C(COc1ccccc1)Nc1ccc([N+](=O)[O-])cc1	2	1%	-18	-1.3	-6
O=C(NCCc1ccccc1)c1ccc(CS(=O)(=O)c2ccc(Cl)cc2)o1	-8	-4%	/	3.2	2
O=C(NNC(=S)NCc1ccc(Cl)cc1)c1cccnc1	-4	/	/	-3.1	/
C=C1CCC[C@]2(C)C[C@H]3OC(=O)C(CN(C)CC(OC)OC)[C@H]3CC12 (some centres undefined)	56	/	/	0.6	/
CCn1cc(C(=O)O)c(=O)c2cc(F)c(N3CCN(C(=S)NC(=O)c4ccc(F)c(F)c4)CC3)cc21	16	10%	/	-0.7	0
COc1cccc(NC(=O)Nc2ccc(CC(=O)O)cc2)c1	0	-3%	/	-1.5	0
CC(C)(C)n1nc2c(c1NC(=O)c1cc([N+](=O)[O-])ccc1Cl)CS(=O)(=O)C2	7	/	/	-2.2	/
CNc1ccccc(-c2ccc3cc4c(cc3n2)OCO4)c1=O	-1	0%	-39	-15	-4
Cc1ccc(-c2cc(C(F)F)n3ncc(C(=O)NN4CCCCC4)c3n2)cc1	-1	-1%	/	-0.1	-12
CC(C)CC(=O)Nc1ccc(S(=O)(=O)N2CCCC2)cc1	0	/	/	-4.0	/
CC1N(C)c2cc(NC(=O)c3cccs3)c(P(=O)(Nc3ccc([N+](=O)[O-])cc3)N3CCOCC3)cc2C1(C)C (centres undefined)	70	79%	/	5.5	-5
CCNc1nc(NCC)n2c(SCC(=O)O)nnc2n1	-13	-3%	8	-1.6	1
CCN(c1ccccc1)S(=O)(=O)c1ccc(OC)c(NC(=O)Cn2cnc3c2c(=O)n(C)c(=O)n3C)c1	0	8%	/	1.7	-7
CCCOc1ccccc1Cn1c(=O)oc2ccc(C)cc21	9	-5%	15	-1.4	5
O=C(NCc1ccc(F)cc1)c1cc(-c2ccncc2)nc2ccccc12	10	/	/	1.0	/
O=C(NCCN1CCOCC1)/C(=C/c1ccccc1)NC(=O)c1ccccc1	-9	/	/	-1.1	/
O=C(NCc1ccco1)C1CC(O)CN1C(=O)Nc1ccccc1 (centres undefined)	0	/	/	1.3	/
O=C(C(=O)N1CCN(c2cccc(Cl)c2)CC1)N1CCCCC1	-2	2%	/	-3.6	1
CN(CCc1ccccc1)C1CCCN(S(=O)(=O)N(C)C)C1 (centres undefined)	4	/	/	4.0	/
O=C(O)CCn1c(SCc2ccccc2)nc2ccccc21	4	-2%	-35	1.1	4
O=c1[nH]c2cc(Cl)cc(Cl)c2[nH]c1=O	-4	-3%	-51	0.2	5
O=C(O)C1CSC2(c3ccc(Br)cc3)CCC(=O)N12 (centres undefined)	-2	0%	/	/	1
O=C(COC(=O)Cc1ccc(F)cc1)NCCc1ccccc1	3	/	/	-5.4	/
CCCCc1nnc(NC(=O)Cc2ccc(OC)c(S(=O)(=O)N3CCOCC3)c2)s1	-9	/	/	5.9	/
CN1CCN/C1=C(/C(Cl)=C(Cl)Cl)[N+](=O)[O-]	6	-3%	/	-3.0	-4
CN1CCc2c(c3c(n2C)CCN(C)[C@H]3c2ccccc2F)[C@@H]1c1ccccc1F	/	-9%	-21	/	7
CC(C)C1C(c2ccccc2)N(C)C(c2ccccc2)CC1(O)c1ccccc1 (centres undefined)	100	?	8	16	-46
CC(C)COP(=O)(c1ccc(N(C)C)cc1)C(Nc1ccccc1)c1cccnc1 (centres undefined)	4	2%	-10	4.3	-17
CCc1nc(Nc2ccc(O)cc2)c2oc3ccccc3c2n1	4	/	/	2.9	/
COc1cccc(-c2nc(CS(=O)CC(=O)NCc3ccc(F)cc3)c(C)o2)c1 (centres undefined)	1	/	/	2.6	/
CCOc1cccc(-c2c(C(=O)N/N=C/c3ccc(C)o3)nnn2-c2nonc2N)c1	5	/	/	0.3	/
CCCCCn1c(=O)[nH]c2cc(C(=O)O)ccc2c1=O	-7	-19%	-25	0.6	11	Arbovirus inh repeat=2
CC(=O)N1CC(=O)N(OCc2ccccc2)C1c1ccc(Cl)cc1Cl (centres undefined)	-3	-8%	-13	0.9	1
COc1ccc(C(=O)C(Cc2cc(C(C)=O)ccc2OC)N2CCCC2)cc1 (centres undefined)	2	2%	/	0.4	1
CC1=C(C(=O)Nc2ccccn2)C(c2ccc3c(c2)OCO3)C2=C(CC(C)(C)CC2=O)N1 (centres undefined)	1	-6%	/	-6.0	-7

Bioassay records: PubChem BioAssay, several laboratories

The list is partial, so the mix of outcomes need not match the whole.
